Menin MLL FP FL: displaces fluorescein MLL peptide from human menin. Fluorescence polarization, fluorescein-MLL peptide displacement from menin. FP activity change, % at 61.4 µM. 290,000 tested, under 10 active. AID 1766; inconclusive = falling polarisation curve, or a change in total fluorescence; inactive = total fluorescence flat and polarisation flat or rising; no compound was filed as active; the % refers to the polarisation; negative = inhibition;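 also: % of control where 0% means no effect; inhibitors lower the polarisation; unlabelled MLL peptide was the positive control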
gsp antagonist: antagonists of gsp mutant (McCune-Albright syndrome); gsp-mutant cells, cAMP HTRF, 30 min; control for the full effect not named in the record; Potency, µM (top dose mostly 76.9 µM), for the others: top-dose activity change, negative = inhibition, hits mostly inhibitors; 340,000 compounds, 0.4% hits; active = falling curve of any shape with a large fitted effect; inconclusive = falling curve, mostly with a smaller effect; inactive = flat or rising curve; cell line not stated here;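 also: intracellular cAMP measured with PDE inhibitor Ro 20-1724 present during compound exposure; potency is read from the fitted curve at half-maximal effect; % is scaled to controls: 0 for no effect and ±100 for the full control effect; nearly all actives have a fitted effect of over 65% in size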
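Measurement of cellular cAMP by homogeneous time-resolved fluorescence following a 30 min compound exposure at 37C. The PDE inhibitor […] was present throughout; the assay buffer was DPBS with 0.05% BSA and 0.005% Tween 20.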
gsp ag: agonists of gsp mutant (McCune-Albright syndrome); gsp mutant cells, cAMP HTRF, 30 min; control for the full effect not named in the record; Potency, µM (titrated, usually from 76.9 µM), for inactives: at the highest dose activation (cAMP increase), usual class: activators; 340,000 compounds, 0.13% hits; AID 624287; active = well fitted activation curve with a large enough effect; inconclusive = small, poorly fitted or top-dose-only effect, or another doubt; inactive = no such curve, though single readings can be large or run the other way; cell line not stated here;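 also: phosphodiesterase inhibitor Ro 20-1724 added with compounds to block cAMP breakdown; potency is read from the fitted curve at half-maximal effect; nearly all actives have a fitted effect of over 60% in size; about a fifth of the inactives were tested at one dose only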
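Cells in DMEM/10% FBS with G418 were pretreated with compounds in DMSO plus […] (300 uM stock) for 30 min at 37C. cAMP was measured by HTRF (cAMP-d2 plus anti-cAMP antibody-K) after 30 min at room temperature.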
TRPML1 inh: blocks the human TRPML1 channel | Q9GZU1 | TRPML1-inducible cells, Ca2+ dye fluorescence, FDSS; hits give low values; inhibition of EC80 agonist-evoked calcium signal | activity change, negative = inhibition, % (concentration not given with the values) | 390,000 compounds, 0.02% hits | AID 624415; in the data active means activity change below about -50%; inconclusive means about -30% to -50%; inactive means above about -30%;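 also: stimulus is agonist 54-4 at its EC80 concentration; % is scaled to controls: 0 for no effect and ±100 for the full control effect; the text of the record puts the active cut at -80%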
Target sequence (Q9GZU1 whole entry, looked up): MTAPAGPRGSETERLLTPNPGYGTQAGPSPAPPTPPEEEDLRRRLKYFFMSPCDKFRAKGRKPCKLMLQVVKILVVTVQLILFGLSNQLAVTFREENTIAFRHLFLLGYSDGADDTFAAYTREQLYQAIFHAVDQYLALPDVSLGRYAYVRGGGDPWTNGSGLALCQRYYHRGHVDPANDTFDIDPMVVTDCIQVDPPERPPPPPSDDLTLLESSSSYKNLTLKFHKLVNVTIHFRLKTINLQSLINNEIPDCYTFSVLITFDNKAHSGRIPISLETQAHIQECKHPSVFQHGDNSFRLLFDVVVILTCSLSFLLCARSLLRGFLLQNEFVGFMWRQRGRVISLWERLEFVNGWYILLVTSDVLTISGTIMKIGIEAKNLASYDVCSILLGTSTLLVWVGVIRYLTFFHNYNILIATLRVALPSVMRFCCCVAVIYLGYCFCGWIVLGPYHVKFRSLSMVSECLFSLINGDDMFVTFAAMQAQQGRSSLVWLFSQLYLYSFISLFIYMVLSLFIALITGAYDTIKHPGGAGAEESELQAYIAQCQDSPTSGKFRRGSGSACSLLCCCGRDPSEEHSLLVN
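Tet-induced TRPML1-DL cells loaded with Ca8 no-wash calcium dye were read kinetically on FDSS. Compound addition was followed by EC80 agonist 54-4 (4 uM final); inhibition was read over 110 s.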
ClpP mod: qHTS Assay for Activators of ClpP | purified B. subtilis ClpP, FRET peptide cleavage, 20 min | Potency, µM (series often up to 57.5 µM), inactives show top-dose activity change, negative = active | 340,000 compounds, 1.9% hits | AID 651965, 2013; active = well fitted falling curve with a large enough effect; inconclusive = small, poorly fitted or top-dose-only effect; inactive = no such curve, though single readings can be large or run the other way; also: potency is read from the fitted curve at half-maximal effect; the source files actives as falling curves though it sought activators and does not explain the sign; nearly all actives have a fitted effect of over 65% in size; many hits overshoot -100%
Target sequence (P80244 whole entry, looked up): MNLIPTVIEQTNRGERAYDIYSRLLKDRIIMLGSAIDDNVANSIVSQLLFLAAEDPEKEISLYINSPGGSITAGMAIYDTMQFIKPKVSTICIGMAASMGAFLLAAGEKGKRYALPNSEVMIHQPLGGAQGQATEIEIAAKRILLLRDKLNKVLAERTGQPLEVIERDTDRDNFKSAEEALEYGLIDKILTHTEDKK
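Purified B. subtilis ClpP, 10 microg/mL final in Tris/HCl pH8 with KCl, BSA, glycerol and Tween-20, cleaved an Abz/nitrotyrosine-quenched decapeptide. Fluorescence (ex 320, em 430) was read at 0 and 20 min at room temperature. Delta was normalized to 5.8 microM ADEP and DMSO/no-enzyme controls.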
TRPML1 agonist: agonists of human TRPML1 channel | Q9GZU1 | TRPML1-expressing cells, Ca2+ dye fluorescence, FDSS; host cell line not named in the record; reference of the full effect not given here | activation, % (no concentration beside the values) | 410,000 compounds, 0.12% hits; in the data active = activation above about 50%; inconclusive = about 30% to 50%; inactive = below about 30%; also: 0% is about no effect; the text of the record puts the active cut at 80%
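Kinetic FDSS Ca2+ read in Tet-induced TRPML1-DL cells (ABD Ca8 dye plus quencher, 45-90 min RT loading): baseline, then compound, then 110 s agonist window; EC80 agonist 54-4 at 4uM final added afterwards for a 110 s antagonist window.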
The depositor's hits bear a star; ? = inconclusive; . = not tested or not shown; & = joins results of further samples; [ ] = remark or other dose.

SMILES | Menin MLL FP FL | gsp antagonist | gsp ag | TRPML1 inh | ClpP mod | TRPML1 agonist
CN(CC(=O)OCC(N)=O)S(=O)(=O)c1ccc(Cl)cc1 | -2.1 | -8.0% | -13.5%[15.4 µM] | -8.3 | . | 0.3
CCC(CO)Oc1cc(NC(=O)c2cccc(Cl)c2)c2ncn(C(C)C)c2c1 (configuration not stated) | . | -22.5% | 11.2% | 2.2 | 17.2% | 0.0
COCCCNC(=O)C(CC(N)=O)NC(=O)OCc1ccccc1 (configuration not stated) | -0.2 | 12.7% | -10.3%[15.4 µM] | 6.1 | . | 0.5
CCc1ccc(-n2nc(C)c3c(C)cc(=O)n(CC(=O)Nc4ccc(C(C)=O)cc4)c32)cc1 | . | . | . | 0.2 | ? | -0.8
Cc1ccc(C(=O)Nc2ccc(C(=O)N3CCCCC3)cc2)o1 | . | -4.3% | 23.9% | -4.2 | -1.0% | 0.0
CCC(=O)N1CCc2cc(Br)cc(S(=O)(=O)NCCc3ccc(OC)c(OC)c3)c21 | . | . | . | -6.2 | 1.1% | -0.7
CCOCCCNC(=O)C(NC(=O)c1ccc(NC(C)=O)cc1)c1ccc(Cl)cc1 (configuration not stated) | 3.6 | 7.4% | -9.2%[15.4 µM] | -19.6 | -3.4% | 0.7
O=C1CC(NS(=O)(=O)c2cc(F)ccc2F)CN1c1cccc(F)c1 (configuration not stated) | . | 3.7% | 45.3%[15.4 µM] | 5.1 | . | -0.3
CCCN1C(=O)/C(=C/c2c(NCCCOCC)nc3c(C)cccn3c2=O)SC1=S | ? | 3.0% | -2.0% | 17.5 | -5.2% | 10.3
O=C(NCc1ccccn1)c1cn(-c2ccccc2)nc1-c1ccc(Cl)cc1 | 5.5 | -17.4% | 23.7% | 23.7 | -8.8% | 0.4
COc1ccc(NC(=O)c2sc3ncn(CC(=O)N4CCCCC4)c(=O)c3c2C)cc1OC | 6.3 | -13.6% | 27.6% | -10.0 | 0.4% | -0.3
COc1cccc(-c2nnc(SCC(=O)N(C)C3CCCCC3)o2)c1 | . | . | . | 7.0 | -0.7% | 1.0
CCN1C2OC3OC4C(OC3OC2N(CC)S1(=O)=O)N(CC)S(=O)(=O)N4CC (configuration not stated) | -0.3 | 0.6% | 4.0% | 2.2 | -0.1% | 2.4
O=S(=O)(NCCc1ccncc1)c1cc(Br)ccc1F | 1.4 | -1.5% | 1.4% | -12.4 | -0.7% | 0.0
Cc1ccc(Cl)cc1NC1=C/C(=N\S(=O)(=O)c2cccs2)c2ccccc2C1=O | 2.1 | -2.1%&3.9% | -4.3%&-7.0% | 6.7&5.5 | 1.3% | 0.2&0.5
Cc1cccc(OCCCCn2nnc3sc4c(c3c2=O)CCC(C)C4)c1 (configuration not stated) | . | . | . | 2.2 | 0.7% | 1.8
CC(=O)N1N=C2c3ccccc3CCC2C1c1cccs1 (configuration not stated) | 3.8 | -1.6% | 10.5% | -3.9 | -0.6% | 1.8
Cc1cc(Br)ccc1NC(=O)C1CCN(S(=O)(=O)c2cccc3nsnc23)CC1 | . | . | . | 12.1 | -1.3% | -1.3
c1cncc(-c2nc(N3CCOCC3)c3ccccc3n2)c1 | 0.3 | 2.6% | -2.0% | 10.6 | -8.9% | 1.9
O=c1ccc(/C=C/c2ccccc2)nn1Cc1ccccc1 | 1.2 | -4.0% | ? | 28.8 | 28.2µM* | 1.0
CCOc1ccc2oc(C(=O)N3CC(C)OC(C)C3)c(C)c2c1 (configuration not stated) | . | -27.0% | 23.7% | 14.5 | -7.9% | 0.0
CCCCNC(=O)c1cnc2sc(N3CCCCCC3)nn2c1=O | . | . | . | -4.9 | 25.1µM* | 0.0
Cc1cc(C)c(Cn2c(=O)n(CCCCC(=O)NCc3ccccc3Cl)c(=O)c3ccccc32)c(C)c1 | . | . | . | -3.2 | -7.6% | -0.1
COc1cccc(/C=N/NC(=O)C[n+]2ccccc2)c1OC | 5.7 | -4.7% | 5.2% | 8.6 | -1.0% | 0.5
CCC1(CC)Nc2ccccc2C(=O)N1c1ccc(NC(C)=O)cc1 | -1.6 | 0.8% | ? | -4.5 | -6.9% | -0.1
CCn1c(CCCOc2ccc(Cl)cc2Cl)nnc1SCC(=O)Nc1cccc(F)c1 | -1.9 | -25.2% | -14.3% | -1.5 | 0.0% | 2.4
COCCN(C(=O)CNC(=O)c1cccs1)C(C(=O)NC(C)(C)C)c1ccccc1 (configuration not stated) | -0.2 | 8.9% | ? | 5.0 | 0.3% | 0.5
COc1ccc(C(=O)N2CCN(c3ccc(C(C)=O)cc3)CC2)cc1S(=O)(=O)N1CCCC1 | . | -8.9% | 24.2% | 5.6 | -10.5% | -0.4
COc1ccc(C(=O)NCC(O)CN2CCOCC2)cc1[N+](=O)[O-] (configuration not stated) | 0.3 | 11.0% | -0.2% | -23.9 | -2.8% | 0.7
COc1cccc(CNC(=O)CCS(=O)(=O)c2cc3c4c(c2)CCN4C(=O)CC3)c1 | . | . | . | -4.9 | -0.2% | 0.5
CC(C)(C)Nc1nc(N2CCCC2)nc(N2CCCC2)n1 | 3.1 | -2.8% | -42.1%[inhibitor] | 13.8 | -1.8% | 1.7
CNC(=S)N/N=C1\CC(c2ccccc2)Oc2ccccc21 (configuration not stated) | 3.2 | -6.8% | -2.3%[15.4 µM] | 25.1 | 0.1% | 3.2
C[C@H](CO)N1C[C@H](C)[C@@H](CN(C)C)Oc2c(NS(=O)(=O)c3cccs3)cccc2C1=O | . | -4.7% | . | 11.4 | -1.2% | -0.6
CC(=O)c1ccc(NC(=O)CCc2c(C)nn(-c3ccc(N4CCOCC4)nn3)c2C)cc1 | 0.2 | -6.6% | ? | -8.8&-8.5 | 0.3%&0.4% | 0.5&-0.3
Cc1nn(C)c(Sc2ccccn2)c1[N+](=O)[O-] | 1.8 | 5.1% | -7.9%[15.4 µM] | -7.1 | . | 0.2
Cc1cc(C)cc(NC(=O)C2CCCN(S(=O)(=O)c3cnc[nH]3)C2)c1 (configuration not stated) | -0.8 | 3.6% | -44.9%[inhibitor] | -21.3 | 1.4% | -0.2
CCOC(=O)C1(C/C(C)=N/NC(N)=O)CC(C)OC1=O (configuration not stated) | 0.2 | 17.7% | -4.3%[15.4 µM] | 9.1 | 1.1% | -1.1
Cc1ccc(C(=O)N/N=C2/NC(=O)CC(C(=O)Nc3ccccc3)S2)cc1 (configuration not stated) | 7.0 | 5.1% | 20.0% | -0.9 | -4.3% | 0.9
CN(C(=O)c1cccs1)C1(C)CCS(=O)(=O)C1 (configuration not stated) | . | 1.8% | 3.7% | 0.1 | -1.0% | 0.5
CC(C)c1ccc(C2=CC(c3cccc(Cl)c3)n3ncnc3N2)cc1 (configuration not stated) | . | . | . | -11.3 | 4.3% | 2.1

The list goes on; the last two above are carried over.
SMILES | Menin MLL FP FL | gsp antagonist | gsp ag | TRPML1 inh | ClpP mod | TRPML1 agonist
CN(C(=O)c1cccs1)C1(C)CCS(=O)(=O)C1 (configuration not stated) | . | 1.8% | 3.7% | 0.1 | -1.0% | 0.5
CC(C)c1ccc(C2=CC(c3cccc(Cl)c3)n3ncnc3N2)cc1 (configuration not stated) | . | . | . | -11.3 | 4.3% | 2.1
Cn1ccc(NC(=O)c2ccc(Cl)cc2)n1 | . | 6.3% | ? | 11.1 | 0.0% | 4.1
O=c1cc(C=NNc2ccccc2)[nH]c(=O)[nH]1 | . | -11.3% | 0.9% | -6.4 | -1.2% | -0.3
COc1ccc2cc3cc(C(=O)NCCCN4CCc5ccccc5C4)sc3nc2c1 | 6.0 | -12.5% | 4.7% | 48.9 | -12.2% | -1.2
COc1ccc(Cl)cc1NC(=O)CSC1=Nc2ccccc2C2=NC(CC(=O)NC3CCCCC3)C(=O)N12 (configuration not stated) | . | . | . | -15.8 | -2.4% | 0.5
CSc1ccc(/C=C/C(=O)OCC(=O)c2ccc[nH]2)cc1 | . | -1.0% | -53.6%[inhibitor] | 4.7 | -16.5% | 0.3
COC(=O)CNC(=O)CN1C(=O)N(c2cccc(Cl)c2)C(N(O)C(=O)Nc2cccc(Cl)c2)C1(C)C (configuration not stated) | 7.1 | -4.7% | -4.6% | -1.1 | 1.1% | -0.3
CC(C)c1ccc(S(=O)(=O)c2nnn3c2nc(NCCc2ccccc2)c2sccc23)cc1 | . | . | . | 6.2 | 25.1µM* | 1.7
COc1ccc(OCCCC(=O)NCCc2ccc(OC)c(OC)c2)cc1 | -5.3 | 3.5% | -0.9%[15.4 µM] | -17.6 | . | 2.8
COc1cc(/C=C2\C(=N)N3N=C(CC(=O)N4CCOCC4)SC3=NC2=O)cc(OC)c1OC | . | 0.6% | 1.6% | -2.4 | 0.2% | -0.5
COC(=O)C1=C(C)N(Cc2ccccc2)C(=NCCc2ccccn2)N[C@H]1c1cccc(F)c1 | -5.8&-2.3 | -1.9% | . | 20.3 | -6.5% | 0.2
O=C(Cc1ccccn1)Nc1ccccc1 | 0.7 | 25.3% | -53.4%[inhibitor] | -1.2 | 1.6% | -0.5
COC/C=C/C1=CC2=CC(=O)C(C)(OC(=O)c3cnc4ccccc4n3)C(=O)C2=CN1c1ccc(OC)cc1 (configuration not stated) | 4.5[11.7 µM] | -22.0% | -3.8% | 21.2 | 0.4% | -0.8
CCOC(=O)C1=C(COC(=O)CCOc2ccc(OCC)cc2)NC(=O)NC1C (configuration not stated) | . | 0.7% | 16.8% | -0.2 | 2.1% | -1.1
COCCn1c(C)cc(O)c(C(=O)Nc2cccc(Cl)c2)c1=O | . | 3.7% | 0.8% | 5.9 | -1.6% | 1.1
Oc1cc2ccccc2nc1-c1ccccc1Cl | 1.3 | 12.8% | -11.9% | 2.2 | . | 0.0
Cc1c(Cl)cccc1NC(=O)CSc1ncc(S(=O)(=O)c2ccc(C(C)C)cc2)c(=O)[nH]1 | . | . | . | 1.0 | -5.2% | 0.4
CN(c1ccccc1)S(=O)(=O)c1cccc(C(=O)OCC(=O)NCCCN2CCCC2=O)c1 | -4.2 | 1.1% | 6.2%[15.4 µM] | -8.2 | 0.1% | 0.9
COc1cc(C(C)=O)ccc1OCC(=O)N1CCCC1c1ccc2c(c1)OCCCO2 (configuration not stated) | . | . | -1.9% | -9.2 | -4.3% | -0.4
CCOC(=O)c1ccccc1NC(=O)Nc1ccc(OC)c(OC)c1 | -0.4 | 7.4% | ? | 17.9 | -0.2% | 0.3
Cn1cccc1CC(=O)N/N=C/c1cccc2ccccc12 | -1.7 | -16.6% | -43.9% | 0.5 | -4.2% | -0.1
COc1ncnc2c1ncn2CCCN(C)Cc1ccco1 | . | . | ? | -0.7 | -1.8% | 0.7
Cc1ccc(C(C)C)cc1S(=O)(=O)Nc1ccncc1 | -1.1 | 3.1% | 14.4% | 29.7 | 1.6% | 0.2
O=C(Nc1ccc(F)c(F)c1)NC1CCCCC1 | -0.2 | -17.8% | -10.8% | -10.2 | -0.4% | -0.2
